# Sa ugtP lethal = kills S. aureus RN4220 lacking UgtP; actives 0.54% (n = 330,000); S. aureus RN4220 ugtP deletion, OD600 growth, 16 h; some inactives read as strong as hits; growth inhibition, % (concentration not given with the values);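 active = z-score under -3 and OD600 up to 0.15 on both plates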;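 also: plate controls were untreated wells for no effect and antibiotic for full effect; wells of about 80 µL received 100 nL stock; the first replicate is given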
# Bead autofluor = counter-screen for toxin protease inhibitors: compound fluorescence. actives 3.1% (n = 360,000). AID 624483. compound autofluorescence counterscreen, microsphere flow cytometry; hits give high values. fluorescence intensity (no concentration beside the values);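 active = at least 3 SD above the mean of all compounds, about 16000 in these data; inconclusive = too few beads counted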;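 also: 100 nL of 1 mM stock went into each well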
# BJeLR lethal = kills HRASV12-expressing BJeLR cells. BJeLR (HRASV12) viability, CellTiter-Glo ATP luminescence, 48 h; reference of the scale not given here. inhibition, % (no concentration beside the values). actives 0.17% (n = 300,000);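 active = replicate mean above 50%; inconclusive = above 50% but judged a plate artefact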;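 also: 50 nL library stock added to about 25 µL; numbers are from one replicate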
# RN4220 kill = S. aureus RN4220 growth inhibition; AID 1259311; OD600, 16 h; actives 0.33% (n = 330,000); inhibition, % (concentration not given with the values);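 active = z-score of -3 or lower and OD600 up to 0.18 on both plates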;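 also: plate controls were untreated cells for no effect and reference antibiotic for full effect; stock transfer was 100 nL into about 80 µL; one replicate is shown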
# Mtb hypoxia rep = inhibitors of hypoxia-regulated fluorescent reporter in Mycobacterium tuberculosis; M. tuberculosis hypoxia-regulated fluorescent reporter, fluorescence; fluorescence inhibition, % (no concentration beside the values); actives 0.1% (n = 300,000);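 active = 35 to 45% if threefold the growth effect, above 45% if 1.5-fold the growth effect; inactive = the rest, general growth blockers included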;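 also: wells of about 50 µL received 100 nL stock; 0% = vehicle wells and 100% = reference inhibitor wells; whole bacteria with a GFP reporter of the hypoxia response; strong numbers were not always called active; many hits fall short of the cut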
# PrP 5UTR inh = inhibition of PrP 5' UTR reporter expression; cell-based PrP 5' UTR mRNA reporter, plate reader; actives 0.35% (n = 340,000); AID 488862; inhibition, % (concentration not given with the values);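 active = every replicate at 50% or more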;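 also: 0 = median of the neutral control wells; tested in H4 reporter cells; numbers are from one replicate; inactives centre near -14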
# Mtb hypoxia rep growth = further read-out of Mtb hypoxia rep, marked with its call; growth inhibition, %; measured here: M. tuberculosis growth (absorbance);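 0% = vehicle and 100% = reference antibiotic; read after six days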
# * marks the source's active call; other numbers are inactive results; ? = inconclusive; . = not tested or not shown.
SMILES,Sa ugtP lethal,Bead autofluor,BJeLR lethal,RN4220 kill,Mtb hypoxia rep,Mtb hypoxia rep growth,PrP 5UTR inh
O=C(Nc1ccccc1-c1ccccc1)C1CCCC1,-5,4112,-2,1.1,-7,3,-3
CC(C)C1NC(=O)c2cc([N+](=O)[O-])cc(I)c2NCCCC(C(=O)NC(CC(=O)O)C(N)=O)NC(=O)C(CO)NC1=O (stereo unspecified),14,.,.,6.4,6,4,.
COc1cc2[nH]c(C(=O)N(C)C3CCS(=O)(=O)C3)cc2c(OC)c1OC (stereo unspecified),-4,5025,2,-2.9,-2,6,-7
COc1cc(/C=C/C(=O)O)cc(S(=O)(=O)Nc2ccc3c(c2)CCC3)c1OC,6,3106,0,1.4,0,1,-6
COC(=O)CCc1c(C)c(C(=O)c2cccc(OC)c2OC)c2ccccn12,-1,3640,-1,5.6,0,4,-10
O=C(COC(=O)c1cc[n+]([O-])cc1)Nc1ccc(Br)cc1,-3,4217,.,-0.6,2,2,-26
C[C@H](Nc1ccc(C(F)(F)F)cc1[N+](=O)[O-])C(=O)O,-4,4277,4,4.1,11,-1,2
Cn1c(=O)c2[nH]c(CCc3ccncc3)nc2n(C)c1=O,-3,3654,.,6.3,3,5,-36
N#Cc1ccc(C(=O)OCC(=O)N2CCCCCC2)cc1,15,?,.,6.6,-5,-11,-19
O=C(Oc1csc(=S)n1C(=O)c1ccccc1)c1ccccc1,.,2378,-10,.,.,.,-9
CCOC(=O)C1=C(CSc2nc(-c3ccccc3)ccc2C#N)OC(N)=C(C#N)C1c1ccccc1 (stereo unspecified),-3,3138,-3,-2.9,.,.,-14
O=C(Nc1ccc2ccccc2n1)Nc1cccs1,-13,3418,-5,4.9,2,7,-48
COC(=O)c1sc(NC(=O)COc2ccccc2)nc1C,-7,3323,-4,-3.9,8,8,-78
Cc1cc2c(cc1C)NC(=O)CC(C(F)(F)C(F)(F)C(F)(F)F)=N2,0,3726,4,0.2,4,4,3
C=C1CCN([C@@H](CC(C)C)C(=O)NN2CCOCC2)S(=O)(=O)c2ccccc21,.,3992,-16,.,.,.,-14
CCCOc1ccc(OCCSc2nnc(N)s2)cc1,8,2426,1,-4.9,.,.,-9
CC(O)[C@H]1CNC(=O)C(=O)N1CC(C)(C)C (stereo partly specified),.,3911,-5,.,.,.,-12
CN(CC(=O)Nc1c(Cl)cccc1Cl)C(=O)CCc1nc2sc3c(c2c(=O)[nH]1)CCCC3,2,.,-1,3.3,-1,-3,-7
CC(C)(C)CN1C(N)=NC[C@@H]1Cc1ccccc1,-6,4358,-1,-18,8,5,-19
CCOc1ccc(-c2cc(C(=O)NCCCN3CCN(CC)CC3)c3ccccc3n2)cc1,5,21315*,0,0.6,8,11,-26
S=C1NCN(Cc2cccnc2)CN1c1cccc(Cl)c1,11,4374,-5,5.4,12,12,-4
CCOC(=O)c1ccc(-n2c(CN3CCN(CC)CC3)nc3ccc([N+](=O)[O-])cc3c2=O)cc1,2,4672,7,2.7,-1,2,1
CCn1c(-c2csc(-c3ccc(Cl)cc3)n2)n[nH]c1=S,-4,2727,8,2.4,0,4,-30
Cc1c(NC(=O)CN2C(=O)NC3(CCC(C)CC3)C2=O)c(=O)n(-c2ccccc2)n1C (stereo unspecified),11,4016,11,-0.5,2,5,-40
Cc1cc(C)nc(SCC(=O)Nc2cc(C)on2)n1,-3,9770,-2,4.3,1,4,-17
SMILES,Sa ugtP lethal,Bead autofluor,BJeLR lethal,RN4220 kill,Mtb hypoxia rep,Mtb hypoxia rep growth,PrP 5UTR inh
CN(C)S(=O)(=O)c1ccc(Cl)c(NC(=O)COC(=O)C2CSC3(C)CCC(=O)N23)c1 (stereo unspecified),2,1918,1,6.1,0,2,3
CC1(C)Cc2c(c(-c3ccco3)nc3sc4c(NCCCO)ncnc4c23)CO1,-9,3667,-14,7.5,6,2,9
CC1Oc2ccccc2C=C1C=NNC(=O)c1ccncc1 (stereo unspecified),4,.,.,2.6,-8,4,.
CCOC(=O)N1CCN(S(=O)(=O)c2ccc(OC)c(Br)c2)CC1,4,3633,-7,4.7,-7,-6,-9
COc1ccccc1CSc1nc2ccccc2[nH]1,-2,10231,5,4.3,6,9,-45
COc1ccc(N/C=C/C(=O)c2cc(OC)c(OC)c(OC)c2)cc1,1,3682,53*,1.4,0,-4,71*
CCN(CC)C(=O)C1CCCN(C(=O)Nc2ccccc2)C1 (stereo unspecified),2,7786,3,3.6,5,5,-4
Cc1ccc(N(C)C(=O)Oc2ccc(C(=O)c3ccc(Cl)cc3)cc2)cc1,1,2735,2,-18,10,9,-10
S=C(c1c[nH]c2ccc(Br)cc12)N1CCOCC1,0,2016,-10,7.2,8,4,-19
Cc1cc(C=NNC(=O)COc2cccc3cccnc23)c(C)n1-c1ccccc1,0,.,.,8.6,-4,3,.
CC(=O)c1ccc(NC2=C(N3CCOCC3)C(=O)c3ccccc3C2=O)cc1,13,11052,6,11,4,7,-9
COc1ccc(C)cc1NC(=O)c1ccc(N(C)S(C)(=O)=O)cc1,13,3139,5,2.7,1,2,-16
CCc1ccccc1N1C(=O)C2CC(C)=C(C)CC2C1=O (stereo unspecified),2,3260,-5,23,-1,12,-2
Cc1ccc(S(=O)(=O)CCSc2cccc(C(=O)Nc3ccccc3C(=O)O)c2)cc1,.,2101,9,.,.,.,-20
O=C(Cn1cccc1C(=O)c1ccccc1)NCCc1ccccc1,1,4347,-4,-0.1,2,-8,-8
COc1ccc(NC(=O)C2CCN(S(=O)(=O)c3ccc(OC)c(OC)c3)CC2)c(OC)c1,1,4024,-2,2.4,-9,4,-9
O=C(OCC(=O)N1CCCCC1)c1n[nH]c(=O)c2ccccc12,5,?,.,3.8,11,-5,-37
CC(NC(=O)/C(C#N)=C/c1cn[nH]c1-c1ccccc1)c1ccccc1 (stereo unspecified),4,3863,6,3.6,3,5,9
C/C(=C\C(=O)c1cccnc1)Nc1ccc(C(=O)O)cc1,-2,9030,-3,3.4,6,18,-6
CCCCOC(=O)c1nnc(-c2ccc(Cl)cc2)o1,19,?,2,0.7,11,2,-25
COc1ccccc1NS(=O)(=O)c1ccc(C)c(C(=O)NCC(c2ccco2)N(C)C)c1 (stereo unspecified),-2,5954,-4,-2.2,-5,-10,-13
Brc1ccc2c(c1)C(c1ccc(N3CCOCC3)cc1)=NNC(c1cccs1)=N2,-16,19294*,4,0.5,10,3,-28
Cc1c(CCOC(=O)C23CC4CC(CC(C)(C4)C2)C3)sc[n+]1CC(=O)c1ccccc1,-18,4405,4,-11,-4,5,-4
COc1ccc(C=NNC(=O)CNC(=O)C2COc3ccccc3O2)cc1OC (stereo unspecified),1,.,.,3.4,6,-1,.
COc1ccc(NC(=O)c2cccc(S(=O)(=O)N3CCCCC3)c2)c(OC)c1,7,6236,-3,2.1,1,4,2
SMILES,Sa ugtP lethal,Bead autofluor,BJeLR lethal,RN4220 kill,Mtb hypoxia rep,Mtb hypoxia rep growth,PrP 5UTR inh
CCN=C1S/C(=C/c2ccc(-c3ccc(Cl)cc3C(=O)O)o2)C(=O)N1CC,8,4077,13,5.5,-1,12,-24
O=C(NCC(=O)N1CCN(C/C=C/c2ccccc2)CC1)c1ccc(Br)cc1,8,5206,.,3.2,5,12,-19
Cc1cc2oc(=O)cc(CN3CCc4ccccc43)c2cc1Cl,-5,4245,11,-0.2,-1,0,-2
COc1ccccc1C(=O)NCCC(=O)Nc1ccncc1,2,6510,0,1.6,8,5,-29
COC(=O)c1ccc(C(=O)OC)c(NC(=S)N2CCC(C)CC2)c1,-1,2400,6,5.9,8,2,14
O=C(NC1CCCCC1)c1cc(-c2ccccc2O)on1,-9,5571,-8,-0.1,10,-1,-59
CNC(=O)[C@@]1(Cc2ccccc2)C=C[C@@H](C)N1C(C)=O,.,3756,-8,.,.,.,-28
O=C(Nc1ccc(N2CCCC2=O)cc1)c1cccc(F)c1,4,7762,11,2.7,1,6,-145
CCCn1nnnc1NCc1ccccc1Cl,6,3728,10,4.0,8,5,-32
CCN(c1ccc(NC(=O)COC(=O)C2CCN(c3ccc(C(F)(F)F)cn3)CC2)cc1)C(C)C,3,3943,.,-1.7,9,3,-39
O=C(c1cccc2ccccc12)C1CCCN(C2CCC2)C1 (stereo unspecified),20,4735,3,1.2,-3,-2,-22
Cn1c2ccccc2c2cc(C=NNC(=O)c3ccc(O)cc3O)ccc21,-9,.,.,-0.7,15,9,.
CC1CCc2c(sc3ncn(CC(=O)N4CCCCC4)c(=O)c23)C1 (stereo unspecified),-4,2205,-7,0.2,10,2,-20
O=C(COc1ccccc1Cl)NCCC1=CCCCC1,-3,2364,5,9.0,16,1,-5
Cc1c(CC(=O)NCC(=O)NCC(=O)O)c(=O)oc2cc3c(cc12)CCC(C)(C)O3,-9,3657,6,-2.7,-5,2,-24
COc1ccc(/C=N/NC(=O)C2C3CCCCC32C)cc1OC (stereo unspecified),.,4562,-1,.,.,.,-3
N#C/C(=C\c1ccco1)C(=O)Nc1ccc(S(N)(=O)=O)cc1,0,3325,2,2.4,8,12,-7
Cc1ccc(NC(=O)N2CCN(C)CC2)cc1NC(=O)N1CCN(C)CC1,15,4298,-11,0.1,-4,-2,-14
Nc1ccc(N=Nc2ccccc2)c2ccccc12,7,2907,1,3.4,4,6,-21
CC(OC(=O)c1cccc(-n2cnnn2)c1)C(=O)c1ccccc1 (stereo unspecified),2,6397,-1,2.9,8,1,-7
Cc1ccc(S(=O)(=O)N/N=C2/CC(c3ccccc3)Oc3ccccc32)cc1[N+](=O)[O-] (stereo unspecified),.,10457,1,.,.,.,-42
CCN(CC)S(=O)(=O)c1cccc(C(=O)NN=Cc2cccc(O)c2O)c1,1,.,.,8.4,11,0,.
O=S1(=O)N=C(NN=Cc2ccccn2)c2ccccc21,4,.,.,-0.9,1,5,.
C(=N/N1CCN(c2ccccc2)CC1)/c1ccncc1,.,3254,-1,.,.,.,-14

# Random excerpt: 7 compounds from above, in no set order.
SMILES,Sa ugtP lethal,Bead autofluor,BJeLR lethal,RN4220 kill,Mtb hypoxia rep,Mtb hypoxia rep growth,PrP 5UTR inh
O=C(Nc1ccc(N2CCCC2=O)cc1)c1cccc(F)c1,4,7762,11,2.7,1,6,-145
CCCn1nnnc1NCc1ccccc1Cl,6,3728,10,4.0,8,5,-32
COC(=O)c1ccc(C(=O)OC)c(NC(=S)N2CCC(C)CC2)c1,-1,2400,6,5.9,8,2,14
Cn1c2ccccc2c2cc(C=NNC(=O)c3ccc(O)cc3O)ccc21,-9,.,.,-0.7,15,9,.
Cc1ccc(NC(=O)N2CCN(C)CC2)cc1NC(=O)N1CCN(C)CC1,15,4298,-11,0.1,-4,-2,-14
O=C(COc1ccccc1Cl)NCCC1=CCCCC1,-3,2364,5,9.0,16,1,-5
COc1ccccc1C(=O)NCCC(=O)Nc1ccncc1,2,6510,0,1.6,8,5,-29

# Ordered by SMILES length (largest number first): 7 of the compounds above
SMILES,Sa ugtP lethal,Bead autofluor,BJeLR lethal,RN4220 kill,Mtb hypoxia rep,Mtb hypoxia rep growth,PrP 5UTR inh
Cc1ccc(NC(=O)N2CCN(C)CC2)cc1NC(=O)N1CCN(C)CC1,15,4298,-11,0.1,-4,-2,-14
COC(=O)c1ccc(C(=O)OC)c(NC(=S)N2CCC(C)CC2)c1,-1,2400,6,5.9,8,2,14
CC(OC(=O)c1cccc(-n2cnnn2)c1)C(=O)c1ccccc1 (stereo unspecified),2,6397,-1,2.9,8,1,-7
Cc1cc2oc(=O)cc(CN3CCc4ccccc43)c2cc1Cl,-5,4245,11,-0.2,-1,0,-2
O=C(Nc1ccc(N2CCCC2=O)cc1)c1cccc(F)c1,4,7762,11,2.7,1,6,-145
O=S1(=O)N=C(NN=Cc2ccccn2)c2ccccc21,4,.,.,-0.9,1,5,.
O=C(COc1ccccc1Cl)NCCC1=CCCCC1,-3,2364,5,9.0,16,1,-5

# Bioassay records (PubChem BioAssay)
